From PubChem
HNF4A DNA FP – change in binding of human HNF4A to DNA, primary screen, biochemical, fluorescence polarization, FITC-DNA | Hepatocyte nuclear factor 4-alpha (Homo sapiens), P41235 | 1 h | activity change, % at 10 µM | 360,000 compounds, 0.3% hits | AID 1224865, 2016; in the data active = activity change above about 30%, passing the limit was not always enough;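 note: controls were the assay level and a saturating level of protein; the project sought stronger binding though the title names inhibitors; some compounds called inactive have numbers as strong as hits; positive values seem to mean higher polarization but the record does not say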
Target sequence (P41235 whole entry, looked up): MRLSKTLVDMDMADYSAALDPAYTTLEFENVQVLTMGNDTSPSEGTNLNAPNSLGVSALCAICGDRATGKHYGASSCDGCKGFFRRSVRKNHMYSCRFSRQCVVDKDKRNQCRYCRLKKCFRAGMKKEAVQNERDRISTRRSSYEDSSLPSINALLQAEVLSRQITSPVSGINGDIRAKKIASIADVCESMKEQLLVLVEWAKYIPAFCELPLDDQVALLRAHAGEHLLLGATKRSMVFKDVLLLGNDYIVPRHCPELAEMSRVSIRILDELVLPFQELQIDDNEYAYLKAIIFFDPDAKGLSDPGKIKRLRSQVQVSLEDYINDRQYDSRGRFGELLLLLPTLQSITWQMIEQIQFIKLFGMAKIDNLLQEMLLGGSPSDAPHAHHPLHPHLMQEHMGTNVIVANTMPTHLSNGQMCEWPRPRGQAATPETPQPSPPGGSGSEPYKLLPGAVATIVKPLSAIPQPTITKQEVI
Vif A3G – inhibitors of Vif binding to APOBEC3G peptide, primary screen, biochemical, TR-FRET, GST-Vif 1-94, biotin-A3G peptide, dose response retest (AID 1117319). Virion infectivity factor (Human immunodeficiency virus type 1 group M subtype B (isolate …. TR-FRET GST-Vif / biotin-A3G peptide binding; higher % means a stronger effect; test concentration not given here; strong numbers were not always called active. one-dose inhibition, %; IC50 in µM for titrated hits. 260,000 compounds, 0.57% hits;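 active = above the screen mean plus three standard deviations and confirmed in dose response; inconclusive = results disagree or hit not tested in dose response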;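 note: Vif residues 1-94 fused to GST binding biotinylated APOBEC3G peptide 110-148; 0% = full assay without inhibitor and 100% = GST in place of GST-Vif; retest series ran down from 100 µM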
MLL AF4-AF9 inh – inhibitors of AF4 peptide binding to AF9, primary screen, biochemical, AlphaScreen, biotin-AF4 peptide, FLAG-AF9, single point; Protein AF-9 (Homo sapiens), P42568; inhibition, % at 10 µM; 350,000 compounds, 0.47% hits; AID 651704, 2012;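 active = every replicate reaching a set inhibition limit, whatever the replicate mean, cut at about 25% in these data; inconclusive = mean inhibition reaches that limit but some replicates miss it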;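 note: 0% = plate neutral control median and 100% = total signal loss; the record names both 10 and 1 µM as test concentration; the first replicate is given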
FGF22 binding – binders of human FGF22 protein, primary screen, FGF22 synaptogenesis inhibitor project, biophysical, thermal shift, single point. recombinant FGF22 thermal shift, SYPRO orange fluorescence; percent of sucrose octasulfate shift, DMSO zero. 340,000 compounds, 1.5% hits. Fibroblast growth factor 22 (Homo sapiens), Q9HCT0. calls only at 9.99 µM;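 active = melting point raised past a set limit in the mean and every replicate; inconclusive = no clear call; three in four hits are not shown here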
Target sequence (Q9HCT0 whole entry, looked up): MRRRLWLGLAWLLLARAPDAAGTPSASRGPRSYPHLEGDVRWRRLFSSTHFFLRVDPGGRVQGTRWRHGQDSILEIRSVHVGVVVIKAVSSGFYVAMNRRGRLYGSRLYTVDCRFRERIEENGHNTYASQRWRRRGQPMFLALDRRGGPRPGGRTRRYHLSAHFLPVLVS
Ecoli growth – E. coli growth inhibition, primary screen, OD600; AID 1053175, 2014; Escherichia coli growth, 23 h; active compounds read low; OD600 absorbance (test concentration not listed); 330,000 compounds, 0.21% hits;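 active = OD600 absorbance below the run mean of sample wells minus 3.6 SD, in any replicate, cut at about 0.56 in these data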;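 note: stock transfer was 300 nL into about 60 µL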
UCH37 inh – inhibitors of human UCH37 deubiquitinase, primary screen, biochemical, Ub-AMC cleavage, fluorescence; purified proteasome/UCH37; inhibition, % (test concentration not listed); 330,000 compounds, 0.33% hits; AID 588478, 2011;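 active = mean of two replicates above 20%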;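 note: 0% = compound-free wells with enzyme and 100% = wells lacking proteasome; stock transfer was 100 nL into about 20 µL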
Target sequence (Q9Y5K5 whole entry, looked up): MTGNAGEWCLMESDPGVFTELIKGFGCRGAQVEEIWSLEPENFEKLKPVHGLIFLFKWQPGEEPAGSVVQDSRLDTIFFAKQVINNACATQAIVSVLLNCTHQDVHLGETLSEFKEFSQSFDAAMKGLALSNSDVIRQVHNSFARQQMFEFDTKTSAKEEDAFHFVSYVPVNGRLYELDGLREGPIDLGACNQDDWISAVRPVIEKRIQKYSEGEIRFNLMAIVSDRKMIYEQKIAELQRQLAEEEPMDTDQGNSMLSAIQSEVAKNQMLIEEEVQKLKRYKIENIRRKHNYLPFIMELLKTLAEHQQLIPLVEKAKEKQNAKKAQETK
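Material: Human UCH37 enzyme supplied as purified proteasome complex | Schedule: 30 min compound-proteasome preincubation then 25 min substrate reaction, room temperature | Detection: AMC fluorescence from Ub-AMC cleavage, excitation 355 nm, emission 460 nm | Benchmarks: Wells without proteasome as full block, compound-free enzyme plus substrate as uninhibited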
RanGTP-Impb inh – inhibitors of RanGTP-importin-beta interaction, primary screen, biochemical, FRET, CFP-Ran, YFP-importin-beta, homogeneous; Ran GTPase (GTP-bound) - importin-beta complex; cell-free CFP-Ran/YFP-importin-beta FRET ratio; inhibition, % (no concentration beside the values); 300,000 compounds, 1.1% hits;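 active = most replicates above 15%; inconclusive = exactly half above 15%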;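 note: 0% = DMSO wells and 100% = Ran loaded with GDP instead of GTP; wells of about 40 µL received 100 nL stock; the first replicate is given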
* marks the source's active call; other numbers are inactive results; i = inactive; ? = inconclusive; . = not tested or not shown. This is a subset (hit frequency here may not be typical).

Molecule,HNF4A DNA FP,Vif A3G,MLL AF4-AF9 inh,FGF22 binding,Ecoli growth,UCH37 inh,RanGTP-Impb inh
CN1C(=O)C(=Cc2ccc(-c3cccc(Cl)c3)o2)C(=O)N(C)C1=O,.,?,.,.,0.71,2.6,2.5
CC1(C)C2CC=C(CN3CCOCC3)C1C2 (stereo unspecified),3.3,11%,2.0,i,0.72,5.6,5.2
C[C@]12CC[C@H](O)CC1=CCC1C2CC[C@@]2(C)C1C[C@@H](O)[C@@H]2O (stereo partly specified),1.0,-7%,1.5,i,0.64,2.8,.
Cc1ccc(N/N=C/c2c(O)n(-c3ccccc3)c(=O)[nH]c2=O)cc1,0.1,21%,-1.2,i,0.67,7.7,1.1
Cc1ncc(CN2CCCC(C(=O)c3cccc(OC(C)C)c3)C2)s1 (stereo unspecified),3.0,2%,-1.7,i,0.67,-2.3,6.0
CCOC(=O)[C@]12Cc3cc(C)ccc3[C@H]1N(C1CCCCC1)C(=O)c1cc(OC)ccc12,1.0,.,-1.1,i,.,.,.
Cc1nn(Cc2ccc(Cl)cc2Cl)c(Cl)c1C(=O)O,-4.7,5%,-2.3,i,0.59,0.0,-1.9
COc1ccc2c(c1)c(C(=O)O)c(C)n2C(C)C,-0.9,32%,.,.,0.77,1.9,4.7
CCN(CC)CC(O)c1ccc(C2CCCC2)cc1 (stereo unspecified),-2.0,-12%,11,i,0.66,2.7,6.5
O=C(Nc1ccc(Cl)cc1C(=O)c1ccccc1)c1ccco1,0.8,-1%,.,.,0.72,0.9,-1.1
CC(N)Cc1cn(Cc2ccccc2)c2ccccc12 (stereo unspecified),1.0,-10%,18,i,0.58,2.9,0.1
Fc1c(F)c(F)c(N2CCNCC2)c(F)c1F,-2.0,-2%,-0.3,i,0.69,1.4,7.1
CC(C)CN1Cc2cc(-c3ccccc3)ccc2-n2nncc2C1,-0.4,.,-2.8,i,.,.,.
COC(=O)C1=C(c2ccc(OCc3ccccc3)cc2)C[C@@H]2CC[C@H]1N2C(=O)NCCN1CCOCC1,-2.2,.,2.6,i,.,1.2,.
CCOc1ccccc1N=C1SCCCN1C,1.2,?,.,.,0.64,4.9,-5.1
COc1ccc(CCNCc2ccc(Br)cc2)cc1OC,-1.9,-7%,7.7,i,0.67,6.5,1.0
O=c1[nH]cnc2nc(-c3ccc(N(CCCl)CCCl)cc3)[nH]c12,-1.2,-8%,7.5,i,0.69,i,.
Cc1ccc(-n2c(O)c(C=NCCN(C)C)c(=O)[nH]c2=O)cc1,5.0,2%,-4.0,i,0.66,-0.3,?
Nc1ncn[nH]1,-3.2,.,-4.7,i,0.68,1.0,-1.0
OCCOCCO,1.1,.,-2.1,i,0.75,2.7,.
O=C(Cc1ccc(Br)cc1)N1CCN(Cc2ccccc2)CC1,0.1,-4%,.,.,0.62,0.1,3.8
CC(=O)O[C@H]1CCC2C3CC[C@H]4[C@@H](O)[C@H](O)CC[C@]4(C)C3CC[C@@]21C (stereo partly specified),-6.5,-6%,-7.4,i,0.7,4.7,.
C=CCn1c(O)c(C=NCCN(C)C)c(=O)[nH]c1=O,14,-5%,.,.,0.67,-0.9,1.1
CN1CCc2c(c(N3CCCCC3)nc3n[nH]c(N)c23)C1,6.3,1%,.,.,0.64,3.6,2.2
Cc1ccccc1-[n+]1c(-c2ccccc2)cc(-c2ccccc2)cc1-c1ccccc1,-3.4,.,7.1,i,0.65,-2.7,-0.1
CCCCc1nc2ccccc2c(=O)n1-c1ccc(O)cc1,1.4,19%,.,.,0.73,-1.3,4.7
CC(=NC(C)c1ccccc1)c1c(O)[nH]c(=O)[nH]c1=O (stereo unspecified),-4.0,14%,.,.,0.73,2.0,0.0
O=S(=O)(c1cc(Cl)cc(Cl)c1)N1Cc2cc(-c3ccccc3)ccc2-n2nncc2C1,-1.4,.,-0.6,i,.,.,.
CN(C)C(=O)Oc1cccc(NC(=O)c2ccccc2C(F)(F)F)c1,3.3,-13%,-0.3,i,0.68,1.3,-0.9
C[C@]12CCC3C(CC[C@H]4C[C@@H](O)CC[C@]34C)C1C[C@H](Br)[C@@H]2O (stereo partly specified),3.3,.,-8.0,i,.,.,.
C=CCn1cc(C=C2C(=O)N(C)C(=O)N(C)C2=O)c2ccccc21,0.7,-22%,1.2,i,0.66,1.4,0.9
c1ccc(CCNC2CCCCCC2)cc1,-2.2,-3%,-2.4,i,0.64,3.3,3.9
Cc1c(C(=O)N2CCC3(CC2)OCCO3)oc2ccc(S(=O)(=O)N3CCCCC3)cc12,3.3,18%,.,.,0.67,1.6,-0.1
C=CCn1c(=O)c(C=Nc2cccnc2Cl)c(O)n(CCCC)c1=O,8.4,?,-1.0,i,0.7,-20,0.9
Cc1ccccc1C1=NCC(=O)N(CC(=O)N2CCCCC2)c2sc(C)c(C)c21,-0.8,2%,.,.,0.71,4.6,2.5
CN(C)c1ccc(CN2CC=C(c3ccc(F)cc3)CC2)cc1,2.2,21%,.,.,0.68,6.5,-3.9
O=C1Nc2ccc(Br)cc2C(c2ccccc2)=NC1O (stereo unspecified),-3.6,3%,1.0,i,0.66,1.7,?
COc1ccc(CN2Cc3cnnn3-c3ccccc3C2c2ccccc2)cc1 (stereo unspecified),2.1,3%,-0.2,i,.,.,.
N=c1c2c(n(Cc3ccc(Cl)cc3Cl)c3c1CCC3)CCCC2,3.3,-3%,.,.,0.68,4.7,?
CC1CN=C(NCc2ccccc2Cl)S1 (stereo unspecified),5.9,.,1.7,i,0.64,3.7,-0.9
CCOC(=O)N(c1ccccc1)P1(=S)OCCO1,-1.2,9%,.,.,0.66,3.1,-5.8
CCCSP1(=S)NCCCO1 (stereo unspecified),1.3,1%,.,.,0.7,-0.6,-0.5
CC(C)c1ccc(N=Cc2c(O)n(C3CC3)c(=S)[nH]c2=O)cc1,-1.3,-24%,-2.4,i,0.7,6.6,-7.6
OC1(c2ccccc2F)CC2CCC(C1)N2CCN1CCOCC1 (stereo unspecified),-2.6,10%,.,.,0.71,4.7,-1.0
CCN1C[C@]2(CO)CC[C@H](OC)[C@@]34C5C[C@H]6[C@H](OC)C5[C@](O)(C[C@H]6OC)[C@@](O)(C(OC)C23)[C@@H]14 (stereo partly specified),-1.8,.,.,.,0.72,-0.4,2.8
COC(=O)C1=C(c2cccc(C#N)c2)C[C@@H]2CC[C@H]1N2C(=O)NCCOc1ccccc1,-1.2,.,-0.9,i,.,0.0,.
CC1=C2C(=O)C3C(CC=C4CC(O)CCC43C)C2CCC12OC1CC(C)CNC1C2C (stereo unspecified),0.0,.,-24,i,0.69,5.8,-2.9
O=C1NC(=O)C(C/C=C/c2ccccc2)C(=O)N1,-1.2,17%,.,.,0.78,12,2.6

Laid out differently: results already given.
Results follow in this order: HNF4A DNA FP | Vif A3G | MLL AF4-AF9 inh | FGF22 binding | Ecoli growth | UCH37 inh | RanGTP-Impb inh
CCN1C[C@]2(CO)CC[C@H](OC)[C@@]34C5C[C@H]6[C@H](OC)C5[C@](O)(C[C@H]6OC)[C@@](O)(C(OC)C23)[C@@H]14 (stereo partly specified)
 : -1.8 | . | . | . | 0.72 | -0.4 | 2.8
COC(=O)C1=C(c2cccc(C#N)c2)C[C@@H]2CC[C@H]1N2C(=O)NCCOc1ccccc1
 : -1.2 | . | -0.9 | i | . | 0.0 | .
CC1=C2C(=O)C3C(CC=C4CC(O)CCC43C)C2CCC12OC1CC(C)CNC1C2C (stereo unspecified)
 : 0.0 | . | -24 | i | 0.69 | 5.8 | -2.9

New compounds follow
Molecule,HNF4A DNA FP,Vif A3G,MLL AF4-AF9 inh,FGF22 binding,Ecoli growth,UCH37 inh,RanGTP-Impb inh
O=C(O)C1C2CCC(O2)C1C(=O)Nc1ccc(F)c(F)c1 (stereo unspecified),1.1,.,-0.9,i,0.7,4.4,6.4
CCC(=O)c1ccc(OC)c(OC)c1,-1.3,2%,-17,i,0.69,0.5,7.5
Nc1ccccc1N=Cc1c(O)n(CCC2=CCCCC2)c(=O)[nH]c1=O,6.8,12%,.,.,0.67,-28,1.6
COC(=O)C1=C(c2cccc(OCc3ccccc3)c2)C[C@@H]2CC[C@H]1N2C(=O)NCCOc1ccc(OC)cc1,1.7,.,3.6,i,.,4.0,.
CN(C(=O)Cc1ccc2c(c1)OCO2)C1CCCN(Cc2ccccc2F)C1 (stereo unspecified),-1.6,1%,4.6,i,.,.,-0.2
Cc1ccc2c(c1)C1CN(C)CCC1N2C(=O)c1ccc(Br)o1 (stereo unspecified),1.4,-2%,.,.,0.72,2.6,-5.7
CN1C(=O)N(C)C(=O)C2(Cc3cc(NC(=O)c4ccc(F)cc4)ccc3N3CCCC32)C1=O (stereo unspecified),13,.,-1.4,i,.,.,-6.3
Cc1nonc1OCCNc1ccc([N+](=O)[O-])c2cccnc12,3.0,14%,.,.,.,.,1.9
OCC1CO1 (stereo unspecified),1.2,.,.,i,0.68,1.0,.
CN1CCN(c2ccc(C(N)=O)cc2N)CC1,1.1,1%,.,.,0.73,-21,-0.5
Cc1ccc(-n2nc(C)c3c2NC(=O)CSC3c2ccc3c(c2)OCO3)cc1 (stereo unspecified),-4.2,?,.,.,0.74,4.3,6.0
COC(=O)C1=C(c2ccc(F)cc2OCc2ccccc2)C[C@@H]2CC[C@H]1N2C(=O)NC1Cc2ccccc2C1,1.3,.,-1.8,i,.,-0.1,.
CCCCn1c(=O)c(C(=O)Nc2cccc(C)c2)c(O)c2ccccc21,0.4,.,-3.6,i,0.72,-17,-2.4
Cc1ccc(-n2c(O)c(C=Nc3ccccc3N)c(=O)[nH]c2=O)cc1C,-1.7,8%,.,.,0.77,4.8,6.3
CN1CCN(C(=S)SCC(=O)Nc2ccc(Cl)cc2C(=O)c2ccccc2)CC1,-2.4,5%,.,.,0.64,-0.3,3.1
C[C@@H]1CC[C@H]2[C@@H](C)C(=O)O[C@@H]3O[C@@]4(C)CC[C@@H]1[C@]32OO4,1.8,.,-2.9,i,0.45*,4.0,3.1
CCOC(=O)[C@]12Cc3ccccc3[C@H]1N(Cc1ccccc1)C(=O)c1cc(F)c(F)cc12,-0.2,.,0.4,i,.,.,.
Cc1nn(Cc2ccccc2)c(Cl)c1C(=O)OCC(=O)Nc1cccc2ccccc12,-1.6,.,3.4,i,0.73,2.2,-0.7
O=C(Cn1ncc2c3ccccc3n(Cc3ccccc3F)c2c1=O)N1CCC2(CC1)OCCO2,0.4,-63%,.,.,0.71,-0.4,3.4
COC(=O)CN1C(=O)C2(C(C(=O)OC)=C(N)Oc3ccccc32)C2=C1CC(C)(C)CC2=O (stereo unspecified),-1.1,-1%,.,.,0.64,2.5,5.1
CN1CCCC1c1ccc(=O)[nH]c1 (stereo unspecified),1.4,-4%,0.4,i,0.73,2.9,.
CCC1([N+](=O)[O-])COP(N)(=O)OC1 (stereo unspecified),-3.9,-10%,0.2,i,.,.,.
COc1ccccc1Cn1c(SCC#N)nc2cc(C(=O)N3CCC4(CC3)OCCO4)ccc2c1=O,0.3,-5%,2.5,i,0.68,2.0,-1.8
